Mtb growth: M. tuberculosis H37Rv growth inhibitors, H37Rv strain (AID 1626); M. tuberculosis H37Rv growth inhibition; higher % means a stronger effect; actives 0.95% (n = 220,000); inhibition, % at 10 µM, or IC50 in µM where a hit was titrated;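 active = confirmed in a dose series; inconclusive = inhibition above 80% but not taken into the dose series; inactive = below 80% or under 30% at every dose of the series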;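 note: bacteria incubated seven days before Alamar blue readout; 0% = bacteria only wells and 100% = bacteria with antibiotic wells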
Mtb bLac sens: beta-lactam sensitization of Mtb H37Rv, H37Rv. M. tuberculosis H37Rv growth with meropenem, percent inhibition; hits of this screen are not shown here. inhibition, % at 25 µM. actives 0.27% (n = 330,000). AID 434955, 2010;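 active = about 74% or more and at least 40 points above the plate without the antibiotic, then above 30% in a dose series; inconclusive = first-round hits that could not be retested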;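 note: growth measured after seven days incubation then overnight dye step; 0% = bacteria only wells and 100% = bacteria with antibiotic; twin plates without the antibiotic show which effects depend on it; some results filed as inactive read as strong as hits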
Arbovirus anti: antivirals against arbovirus infection, primary screen, cell-based, full library, 10K replicate subset. arbovirus infection cell-based antiviral screen. inhibition, % at 10 µM. actives 0.37% (n = 200,000). AID 1251, 2008;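 active = inhibition from about 30%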;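 note: bluetongue infection of BSR cells; cell survival read as ATP light after 72 h; 0% = infected wells without compound and 100% = uninfected wells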
YopH PTP inh: YopH tyrosine phosphatase inhibitors, primary screen, biochemical, fluorescence Ex485/Em525. actives 0.16% (n = 140,000). inhibition, %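 (about 10 µM by stock and volumes)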;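 active = inhibition of 50% or more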;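 note: controls were vehicle for no effect and minimum signal wells for full effect; inactives centre near -20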
RecA intein inh: Mtb RecA intein splicing inhibitors, primary screen, biochemical, fluorescence, HTS. actives 0.75% (n = 290,000). AID 2221, 2009. inhibition, %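 (about 9 µM by stock and volumes)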. cell-free RecA intein splicing; in the data active = inhibition above about 30%; inconclusive = no clear call, values can overlap the other calls;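 note: 0% = vehicle wells and 100% = reference inhibitor control wells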
Target sequence (P9WHJ3 whole entry, looked up): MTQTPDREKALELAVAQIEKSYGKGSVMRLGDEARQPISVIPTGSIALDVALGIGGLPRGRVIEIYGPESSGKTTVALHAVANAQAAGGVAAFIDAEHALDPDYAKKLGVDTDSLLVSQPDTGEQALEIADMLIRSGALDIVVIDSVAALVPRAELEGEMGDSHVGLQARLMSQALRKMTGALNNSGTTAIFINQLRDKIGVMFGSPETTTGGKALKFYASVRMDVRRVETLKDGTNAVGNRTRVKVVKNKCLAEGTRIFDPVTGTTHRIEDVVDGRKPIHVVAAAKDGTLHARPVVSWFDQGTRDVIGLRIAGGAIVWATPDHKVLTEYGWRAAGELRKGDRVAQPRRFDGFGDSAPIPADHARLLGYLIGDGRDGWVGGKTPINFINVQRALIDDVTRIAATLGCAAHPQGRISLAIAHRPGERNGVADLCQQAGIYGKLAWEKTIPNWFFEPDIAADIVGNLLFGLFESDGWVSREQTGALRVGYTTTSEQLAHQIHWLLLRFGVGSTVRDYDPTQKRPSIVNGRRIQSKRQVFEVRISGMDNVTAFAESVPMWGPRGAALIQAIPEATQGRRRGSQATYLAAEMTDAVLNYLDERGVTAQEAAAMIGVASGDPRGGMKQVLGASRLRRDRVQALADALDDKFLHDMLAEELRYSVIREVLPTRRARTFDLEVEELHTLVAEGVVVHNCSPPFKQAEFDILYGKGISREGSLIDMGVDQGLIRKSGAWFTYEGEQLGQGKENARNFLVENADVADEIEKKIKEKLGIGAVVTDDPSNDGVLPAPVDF
Arbovirus anti repeat: also measured in Arbovirus anti; calls as there; inhibition, %; measured here: 10K subset replicate screen; many hits read low in the repeat;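 first of two repeat runs on a subset; 0% = infected and 100% = uninfected wells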
Active calls of the source: *; u = inconclusive; x = no result given. Only part of the results is shown (hit frequency here may not be typical).

SMILES | Mtb growth | Mtb bLac sens | Arbovirus anti | YopH PTP inh | RecA intein inh | others
COc1ccc(/C=N/Nc2nc3ccccc3[nH]2)cc1OC | -2% | 0 | 2 | -17 | -2.6
COC(=O)c1ccc(OCC(O)CN2CCN(C(=O)c3ccco3)CC2)c(OC)c1 (centres undefined) | x | -7 | x | x | 2.0
O=C(NCCCc1ccccc1)c1cc([N+](=O)[O-])ccc1Cl | -1% | -2 | -3 | x | 2.2
N#CC1=C(N)N2C(=C(C#N)C1c1cccc(Br)c1)Nc1ccccc12 (centres undefined) | 3% | -1 | 2 | -11 | x
CN(C)S(=O)(=O)c1ccc(C(=O)NCCc2ccco2)cc1 | x | -8 | x | x | -0.7
COc1ccc(-c2cc(C(=O)O)c3sc(N4CCCCC4)nc3n2)cc1OC | 8% | -7 | 8 | -6 | -35
COc1cc(C(=O)O)ccc1OCc1c(C)noc1C | -11% | -11 | 6 | -27 | 1.1
CCOC(=O)c1c(O)c2c([nH]c1=O)CCCC2 | 0% | -23 | -1 | -33 | -0.8
Cc1ccc(-n2c(SCC(=O)Nc3nccs3)nc3c(c2=O)SCC3)cc1 | x | 1 | -3 | -44 | 0.0 | Arbovirus anti repeat=-7
COc1ccc(NC(=S)NCc2ccc(F)cc2)cc1 | x | 0 | x | x | 1.5
CC12CCC(=O)N1C(C(=O)N1CCN(c3ccccc3)CC1)CS2 (centres undefined) | x | -12 | x | x | 0.4
O=Cc1cn[nH]c1-c1ccccc1 | -16% | 6 | 4 | x | x
OCCNc1nc2ccccc2n1-c1ncnc2sc3c(c12)CCC3 | x | x | 5 | -5 | 7.0
O=C(N/N=C/c1ccccc1O)c1cccc2ccccc12 | x | 11 | x | x | -2.2
NS(=O)(=O)c1cc(C(=O)Nc2ccc3c(c2)CCC3)ccc1Cl | x | 1 | x | x | 1.3
CN(C)S(=O)(=O)c1ccc(N2CCCC2)c(C(=O)NCC2CCCO2)c1 (centres undefined) | x | 2 | x | x | -4.5
CC(C)(C)c1ccc(OCC(=O)NCC(c2cccs2)N2CCOCC2)cc1 (centres undefined) | x | 0 | x | x | 1.2
Cc1nn(-c2ccccc2)c2c1C(c1ccncc1)C(C#N)=C(N)O2 (centres undefined) | 1% | -3 | -5 | -57 | 38* | Arbovirus anti repeat=-1
CCC/C=C(\CCC)C(NS(=O)(=O)c1cccc2cccnc12)c1ccc(C(=O)OC)cc1 (centres undefined) | 8% | -15 | -25 | -20 | 4.9
Cc1cccnc1NC(=O)C1CCC1 | x | 2 | x | x | 0.6
Cc1cc(SCC(=O)N/N=C/c2ccc(C(=O)O)cc2)nc2ccccc12 | x | 1 | x | x | -4.0
CSc1ncc(C(=O)Nc2cccnc2)c(C(F)(F)F)n1 | x | -4 | x | x | 0.9
CCNC(=O)c1c(NC(=O)c2cc(-c3cc(C)ccc3O)n[nH]2)sc2c1CCCC2 | 3% | -5 | -11 | 2 | -2.3
COCCSc1nnc(NS(=O)(=O)c2ccc(C)cc2)s1 | -4% | -5 | 3 | x | 3.9
OC1(c2cccc(C(F)(F)F)c2)CCN(c2ccc(-c3ccccc3)nn2)CC1 | -4% | -8 | 20 | 0 | x | Arbovirus anti repeat=-2

(continued)
SMILES | Mtb growth | Mtb bLac sens | Arbovirus anti | YopH PTP inh | RecA intein inh | others
COC(=O)c1ccc2c(c1)nc(C)n2CCO | -2% | -1 | -5 | 9 | -0.3
CCOC(=O)c1sc(=NC(=O)c2ccc(OC)c(OC)c2)n(C)c1C | -4% | 0 | -2 | -33 | 2.0
Cc1cccc(Nc2ccccc2C(=O)OCC(=O)N2CCOCC2)c1C | -6% | 9 | 2 | -35 | -2.0
CCc1ccc(N(C(=O)c2csnn2)C(C(=O)NC(C)(C)C)c2ccccn2)cc1 (centres undefined) | -9% | -8 | -8 | x | -1.6
C=CCOc1c(CNc2ccc(C(=O)O)cc2)cccc1OC | -8% | -2 | 5 | 0 | 1.2
COc1ccc(-c2c(-c3ccsc3)oc3ccc(N4CCOCC4)cc23)cn1 | 18% | 97 | x | x | 7.8
COc1ccc(CNC(=O)CN(C)Cc2ccc(C(C)(C)C)cc2)cc1 | x | 6 | x | x | 9.9
CCOc1ccc(C(C)=O)cc1Cn1ccsc1=N | x | 0 | x | x | -0.1
O=c1cc(CO)occ1OCc1cccc(C(F)(F)F)c1 | -4% | 2 | 0 | -48 | 0.0
CCOc1ccccc1NC1=NC2CS(=O)(=O)CC2S1 (centres undefined) | 3% | -7 | x | x | -2.3
CC1(C)CN=C(N(Cc2ccccc2)C(=O)Nc2ccccc2)S1 | -10% | 4 | -2 | -37 | 0.2
COc1ccc(CNc2nc3ccccc3n2C(C)C)c(O)c1 | x | -7 | x | x | 0.5
COc1ccc(C(=O)c2c(-c3ccc(OC)cc3)oc3ccc(-c4ccc(OC)nc4)cc23)cc1 | 9% | 3 | x | x | 2.9
O=C1CCCC(=O)C1=Cc1c[nH]c2ccccc12 | 0% | -7 | 0 | -22 | 0.7
ON=C1c2cc(OCCN3CCCCC3)ccc2-c2ccc(OCCN3CCCCC3)cc21 | x | 4 | x | x | -0.2
N#Cc1cccc(-c2cn(S(=O)(=O)c3ccc(Cl)cc3)nc2N)c1 | -11% | -2 | -1 | 0 | 2.5
O=[N+]([O-])c1ccc(OCCn2cnc3ccccc32)cc1 | 6% | 1 | 2 | x | -1.3
COc1ccc(C(CCN)Cc2ccccc2)cc1 (centres undefined) | 1% | 0 | -4 | x | 1.6
CCc1ccccc1NC(=O)CSc1n[nH]c(-c2cccnc2)n1 | x | 0 | x | x | -0.6
O=C(NC1CCN(Cc2ccccc2)CC1)C(NS(=O)(=O)c1cccc2nsnc12)c1ccccc1 (centres undefined) | 1% | -2 | 0 | x | -0.5
C=C(C)c1cccc(C(C)(C)NC(=O)N2CC(C)OC(C)C2)c1 (centres undefined) | -10% | -3 | 2 | -20 | 1.4
O=C(CCS(=O)(=O)c1ccc(Cl)cc1)Nc1ccc(N2CCOCC2)cc1 | 0% | -6 | x | x | -0.8
CN1C(C(=O)NCc2cccc(Br)c2)CC2Cn3c(nc4cc5ccccc5cc43)C21 (centres undefined) | 4% | 36 | x | x | 1.7
COc1ccc(OC)c2[nH]c(=O)c(CCNC(=O)Cc3cccs3)cc12 | 6% | 6 | -2 | x | 0.4
CC(=O)N1CCc2cc(Br)cc(S(=O)(=O)NCC3CCCO3)c21 (centres undefined) | 1% | -1 | 3 | -38 | -2.3

Additional structures:
SMILES | Mtb growth | Mtb bLac sens | Arbovirus anti | YopH PTP inh | RecA intein inh | others
COc1ccc(NS(=O)(=O)c2ccc3oc(SC4CCOC4=O)nc3c2)cc1 (centres undefined) | 1% | 2 | 0 | -18 | 0.3
O=C1Cc2ccccc2N1c1c(Cl)cccc1Cl | 3% | 19 | -11 | -9 | 4.2
O=C(Nc1ccc(N2CCN(C(=O)c3ccco3)CC2)c(Cl)c1)c1c(F)c(F)c(F)c(F)c1F | u | 100 | -6 | -22 | 14
O=C(CCCO)NC1Cc2ccccc2C1 | -1% | 4 | x | x | 2.8
CCOC(=O)C1CCN(C(=O)C(C)N(c2ccc(Oc3ccccc3)cc2)S(C)(=O)=O)CC1 (centres undefined) | 4% | x | 4 | x | 0.2
CSCC[C@H](NC(=O)Cc1c(C)c2c(cc(C)c3c(C)c(C)oc32)oc1=O)C(=O)O | x | -1 | x | x | -10.0
CCOc1ccc(C(=O)Nc2nc(C)cc(C)n2)cc1[N+](=O)[O-] | 4% | 2 | -9 | -26 | -0.4
O=[N+]([O-])c1nn(-c2ccc3c(c2)OCCO3)n(O)c1=NCc1ccccc1Cl | 7% | 1 | -7 | -10 | 2.8
COc1cccc(C(=O)NCCS(=O)(=O)N2CCCCC2)c1 | x | 1 | x | x | -0.4
Cc1ccc(CS(=O)Cc2ccc(C(=O)NCCc3ccccc3)o2)cc1 (centres undefined) | x | -9 | x | x | 1.7
CC1CC(C)CN(S(=O)(=O)c2ccc(C(C)(C)C)cc2)C1 (centres undefined) | 5% | 0 | 17 | x | 5.8
Cc1c([N+](=O)[O-])cnc(Sc2ccccc2)c1[N+](=O)[O-] | x | 98 | x | x | 85*
COC(=O)Cn1c(C)c(C(C)=O)c(C(C)=O)c1C | -17% | -11 | 3 | -55 | -4.8
COc1ccc([N+](=O)[O-])cc1N(CC(=O)N1CCN(Cc2ccccc2)CC1)S(C)(=O)=O | x | -5 | x | x | -0.1
COc1c(C)cc(Br)cc1C(=O)Nc1ccc(N2CCN(S(C)(=O)=O)CC2)cc1 | 15% | -1 | -1 | -12 | 0.7
O=C(OCC(=O)N1CCCC1)c1ccccc1O | x | 3 | x | x | -1.6
CCN(CC)C(=O)COc1cc(C)c(Cl)c(C)c1 | 2% | -4 | -2 | -12 | 2.7
COc1ccc(-c2nnc3n2N=C(C)CS3)cc1 | -5% | 11 | -2 | 0 | 2.6
CCCOc1ccc(C(=O)Nc2ccc(N3CCN(C(C)=O)CC3)cc2)cc1 | -2% | 54 | -1 | 5 | 1.9
Cc1cccc(NS(=O)(=O)c2cc3c4c(c2)C(C)C(=O)N4CCC3)c1 (centres undefined) | x | 0 | x | x | -0.2
O=C(COC(=O)c1cc[n+]([O-])cc1)Nc1ccc(F)c([N+](=O)[O-])c1 | -3% | -5 | 9 | -23 | 1.7
O=C(Nc1ccccc1N1CCOCC1)c1cc(-c2ccco2)nc2ccccc12 | 11% | -6 | 11 | -6 | 1.2
O=C(Nc1ccc(-c2cnco2)cc1)c1ccc(Cl)cc1 | -7% | -3 | x | x | -1.0
O=C1CC(N2CCN(Cc3ccccc3)CC2)C(=O)N1 (centres undefined) | 0% | -1 | 4 | x | -1.1
COc1ccc(S(=O)(=O)Nc2nnc(Cc3ccc(OC)c(OC)c3)s2)cc1 | -5% | -1 | -2 | x | -0.6
O=C(NCc1ccco1)c1nc2ccccc2s1 | 5% | 6 | -8 | -32 | -0.3

18 successive compounds already listed, for reference:
SMILES | Mtb growth | Mtb bLac sens | Arbovirus anti | YopH PTP inh | RecA intein inh | others
COc1cccc(C(=O)NCCS(=O)(=O)N2CCCCC2)c1 | x | 1 | x | x | -0.4
Cc1ccc(CS(=O)Cc2ccc(C(=O)NCCc3ccccc3)o2)cc1 (centres undefined) | x | -9 | x | x | 1.7
CC1CC(C)CN(S(=O)(=O)c2ccc(C(C)(C)C)cc2)C1 (centres undefined) | 5% | 0 | 17 | x | 5.8
Cc1c([N+](=O)[O-])cnc(Sc2ccccc2)c1[N+](=O)[O-] | x | 98 | x | x | 85*
COC(=O)Cn1c(C)c(C(C)=O)c(C(C)=O)c1C | -17% | -11 | 3 | -55 | -4.8
COc1ccc([N+](=O)[O-])cc1N(CC(=O)N1CCN(Cc2ccccc2)CC1)S(C)(=O)=O | x | -5 | x | x | -0.1
COc1c(C)cc(Br)cc1C(=O)Nc1ccc(N2CCN(S(C)(=O)=O)CC2)cc1 | 15% | -1 | -1 | -12 | 0.7
O=C(OCC(=O)N1CCCC1)c1ccccc1O | x | 3 | x | x | -1.6
CCN(CC)C(=O)COc1cc(C)c(Cl)c(C)c1 | 2% | -4 | -2 | -12 | 2.7
COc1ccc(-c2nnc3n2N=C(C)CS3)cc1 | -5% | 11 | -2 | 0 | 2.6
CCCOc1ccc(C(=O)Nc2ccc(N3CCN(C(C)=O)CC3)cc2)cc1 | -2% | 54 | -1 | 5 | 1.9
Cc1cccc(NS(=O)(=O)c2cc3c4c(c2)C(C)C(=O)N4CCC3)c1 (centres undefined) | x | 0 | x | x | -0.2
O=C(COC(=O)c1cc[n+]([O-])cc1)Nc1ccc(F)c([N+](=O)[O-])c1 | -3% | -5 | 9 | -23 | 1.7
O=C(Nc1ccccc1N1CCOCC1)c1cc(-c2ccco2)nc2ccccc12 | 11% | -6 | 11 | -6 | 1.2
O=C(Nc1ccc(-c2cnco2)cc1)c1ccc(Cl)cc1 | -7% | -3 | x | x | -1.0
O=C1CC(N2CCN(Cc3ccccc3)CC2)C(=O)N1 (centres undefined) | 0% | -1 | 4 | x | -1.1
COc1ccc(S(=O)(=O)Nc2nnc(Cc3ccc(OC)c(OC)c3)s2)cc1 | -5% | -1 | -2 | x | -0.6
O=C(NCc1ccco1)c1nc2ccccc2s1 | 5% | 6 | -8 | -32 | -0.3

Compound activity deposited in PubChem BioAssay by several laboratories.
